Assay outcomes as filed in PubChem BioAssay.
GLA inh pH 4.5 – blocks human alpha-galactosidase A at pH 4.5 | AID 1467 | purified enzyme, 4-MU-alpha-Gal fluorescence, pH 4.5 | activity change, negative = inhibition, % at 105 µM | 230,000 tested, under 10 active | P06280; inconclusive = small, poorly fitted or top-dose-only inhibition, or a rising curve; inactive = flat fitted curve, though single readings scatter; no compound was filed as active;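 note: 0% = full activity with enzyme and -100% = basal without enzyme; dose as in the result columns while the protocol names 77 µM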
Target sequence (P06280 whole entry, looked up): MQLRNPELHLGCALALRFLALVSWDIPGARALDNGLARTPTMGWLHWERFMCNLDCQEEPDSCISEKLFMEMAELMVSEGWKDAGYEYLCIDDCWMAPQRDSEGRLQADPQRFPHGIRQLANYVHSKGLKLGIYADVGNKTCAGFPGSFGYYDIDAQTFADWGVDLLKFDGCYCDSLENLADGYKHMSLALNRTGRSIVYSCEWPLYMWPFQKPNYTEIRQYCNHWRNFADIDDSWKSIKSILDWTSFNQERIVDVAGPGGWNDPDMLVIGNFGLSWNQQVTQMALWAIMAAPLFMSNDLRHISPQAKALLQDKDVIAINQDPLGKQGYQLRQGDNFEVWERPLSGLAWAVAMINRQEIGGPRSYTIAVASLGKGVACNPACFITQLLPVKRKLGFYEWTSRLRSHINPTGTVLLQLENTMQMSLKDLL
Rango dissoc inh – inhibitors of RanGTP-induced Rango-importin beta complex dissociation; hit rate 0.071% among 340,000; Potency, µM (doses to about 46.1 µM), for the others: at the top dose activity change, negative = inhibition; Biochemical FRET Rango-importin beta, RanGTP-induced dissociation; active means falling FRET ratio curve, often poorly fitted, with flat reads before Ran was added; inconclusive means other falling curves, or compound fluorescence or quenching; inactive means flat or rising ratio curve;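 note: potency is the fitted concentration of half-maximal effect; % of control where 0% means no effect; nearly all actives have a fitted effect of over 45% in size; -100% = wells without RanGTP and RCC1; the record marks most hits as doubtful in a second field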
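Rango/importin beta premix (0.1/0.25 uM final), PBS + 1 mM DTT + 0.02% Tween-20 + 0.1% BSA; cpd 5 min RT; FRET pre-read; + RanGTP-RCC1 (0.6 uM Ran, 2 mM GTP, 0.2 uM RCC1); 45 min RT; FRET post-read, ex 430, em 486/530 nm.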
miR-21 FLuc – raises the signal of a miR-21 reporter; HeLa miR-21 FLuc reporter, luciferase, 48 h; Potency, µM (doses to about 38.3 µM), for inactives: top-dose reporter change, positive = more light; 340,000 tested, under 10 active; active = well fitted rising curve with a large enough effect; inconclusive = small, poorly fitted or top-dose-only effect; inactive = no such curve, though single readings can be large or run the other way;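 note: % of control where 0% means no effect; miR-21 action dims this reporter so a rising signal means less miR-21 action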
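HeLa cells stably expressing CMV-driven firefly luciferase with a downstream miR-21 binding sequence, endogenously expressing miR-21, were treated with titrations (up to about 40uM final) for 48 hours at 37 degree Celsius. Luciferase luminescence was read after lysis.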
Rango-impB inh – prevents formation of the Rango-importin beta complex; hit rate 0.031% among 340,000; Potency, µM (top dose mostly 92.2 µM), without a hit: at the top dose inhibition of complex formation; AID 540263; Rango CFP/YFP FRET sensor + importin beta, 45 min; active = rising FRET ratio curve, often small or poorly fitted; inconclusive = mostly compound fluorescence or quenching in the first reads; inactive = flat curves in all reads;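 note: potency is the fitted concentration of half-maximal effect; 0% = DMSO wells and 100% = buffer wells lacking importin beta; nearly all actives have a fitted effect of over 15% in size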
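Inhibition scored from the CFP 486 nm/YFP 530 nm FRET ratio 45 min after adding 0.125 microM importin beta to 50 nM Rango biosensor preincubated 5 min with compound (room temperature, PBS with DTT, Tween-20, BSA). No-importin wells as positive control.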
The depositor's hits bear a star; ? = inconclusive; nt = not tested or not shown; & = joins results of further samples. Some of the compounds tested; rates above refer to the full screens.

SMILES	GLA inh pH 4.5	Rango dissoc inh	miR-21 FLuc	Rango-impB inh
COC(=O)c1c(C)[nH]c(C(=O)OCC(=O)c2c(N)n(CC(C)C)c(=O)n(C)c2=O)c1C	nt	-25%	nt	?
CSc1ccccc1OCc1cc(C(=O)N2CCN(Cc3nccn3C)CC2)no1	nt	0%	4%	-2.2%
O=C(Nc1nnc(COc2ccc(Cl)cc2)s1)c1ccco1	-2	1%	0%	-0.1%
COC(=O)c1sccc1NC(=O)c1ccccc1Br	nt	3%	nt	3.3%
Cc1cccn2cc(CNC(=O)C3CCCCC3)nc12	0	-15%	-7%	2.2%
CC(Oc1ccc2oc(-c3ccccc3)c(C(=O)O)c2c1)C(=O)O (stereo unspecified)	7	5%	1%	3.6%
CC(C)(C)OC(=O)NCCCCCNC(=O)c1nc[nH]c1C(=O)N1CCN(c2ccccc2)CC1	nt	-4%	nt	0.0%
CCCC(=O)Nc1cc(Cl)ccc1N1CCN(C(=O)CC)CC1	-4	13%	2%	-6.6%
C[n+]1cc(-c2ccccc2)n2c1CCCCC2	8	-1%	-1%	-4.1%
O=C(CNCc1ccccc1Cl)Nc1ccc2c(c1)OCCO2	-6	34%	-48%	-2.7%
CC(=O)Nc1ccc(SC[C@H](Cc2ccccc2)N2CCN(CC(C)C)CCC2=O)cc1	-1	2%	14%	-2.8%
COc1ccc(CC(=O)NNC(=O)c2ccco2)cc1	nt	-3%	0%	-0.5%
Cc1ccc(C)c(NS(=O)(=O)c2ccc(NC(=O)CSc3ccc(Cl)cc3)cc2)c1	14	-19%	-6%	-3.2%
O=C(CCN1C(=O)C2C3CCC(C3)C2C1=O)OCC(=O)c1cccc([N+](=O)[O-])c1 (stereo unspecified)	0	-6%	-2%	?
COc1ccc(-c2noc(-c3cc(C)cc(C)c3)n2)cc1OC	-4	-24%	-9%	6.4%
COc1ccc(N=C2SC(C(=O)Nc3ccc4c(c3)OCO4)CC(=O)N2C)cc1 (stereo unspecified)	-5	-6%&-8%	-3%	-1.3%&0.5%
CCc1ccccc1OCC(=O)Nc1ccc(N2CCCC2)cc1C	nt	-12%	nt	?
CCOc1ccc(NC(=O)CSc2nc3ccccc3nc2N2CCCC2)cc1	nt	1%	-6%	-2.7%
O=C(Nc1ccc(F)cc1)C(c1ccccc1)N1CCN(S(=O)(=O)c2ccc3ccccc3c2)CC1 (stereo unspecified)	2	-3%	3%	-3.9%
COc1ccc(NC(=O)COC(=O)c2ccc(S(=O)(=O)N(C)c3ccccc3OC)cc2)c(OC)c1	-13	nt	25%	nt
O=C(COC(=O)c1ccccn1)c1ccc(Br)cc1	5	-5%	-2%	-6.0%
CCOC(=O)N1CCC(N2CCN(Cc3ccccc3)C(CCO)C2)CC1 (stereo unspecified)	1	-9%	0%	-0.2%
O=C(CCN1CCN(c2ccccc2)CC1)Nc1ccccc1F	2	0%	-14%	5.4%
O=[N+]([O-])c1cccc(-c2ccc(C(=S)N3CCN(c4ccccc4)CC3)o2)c1	-3	-5%	-5%	-1.3%
Cc1ccc(NC(=O)C2C3CCCC2C3c2ccccc2)cc1C (stereo unspecified)	3	-14%	-2%	2.1%
COc1ccc(CN(C)C(=S)Nc2ccc(Cl)cc2Cl)cc1	3	?	3%	0.2%
CC1C(=O)N(Cc2ccccc2F)c2ccccc2N1C(=O)c1c(F)cccc1F (stereo unspecified)	nt	7%	26%	-4.2%
O=C(N1CCN(Cc2ccc3c(c2)OCO3)CC1)C12CC3CC(CC(C3)C1)C2	0	1%	0%	-1.3%
C=CCOc1ccc(/C=C/C(=O)OCC(=O)NCc2cccc(OC)c2)cc1	nt	17%	nt	2.4%
O=C(O)c1ccccc1N/N=C/C1=C(N2CCOCC2)C(=C\c2ccccc2)/CC1	2	?	-32%	?
Brc1ccc(C2=Nn3c(nnc3-c3n[nH]c4c3CCC4)SC2)cc1	-14	4%	14%	0.7%
Cc1ccc(CNC(=O)c2ccc3c(=O)n4c(-c5ccc(C)cc5)csc4nc3c2)cc1	23	-3%	-2%	2.2%
CC(C)(C)c1cn(-c2ccccc2)c(=S)[nH]1	5	8%	-6%	0.1%
CC(=O)c1cccc(NC(=O)c2ccc(S(=O)(=O)N3CCCCC3)cc2)c1	-4	-18%	5%	-0.8%
O=C(NCCN1CCN(c2cccc(Cl)c2)CC1)C1CCCN(S(=O)(=O)c2cnc[nH]2)C1 (stereo unspecified)	-6	-17%	0%	-2.2%
CCCn1c(SCc2nc3sc(C)c(C)c3c(=O)[nH]2)nc2ccccc2c1=O	2	-10%	-7%	-1.7%
CCC1CCCCN1CCCNC(=O)CN1C(=O)c2cccnc2Oc2ccc(Cl)cc21 (stereo unspecified)	nt	-7%	0%&-7%	-5.5%
COCCCn1c(C(=O)NC2CCCCC2C)cc2c(=O)n3cccc(C)c3nc21 (stereo unspecified)	nt	-10%	-4%	-0.6%
C=CCNC(=O)c1cn(CC)c2cc(N3CCN(C(=O)c4ccco4)CC3)c(F)cc2c1=O	nt	-6%	8%	0.0%
Cc1cccc(-n2c(SCC(=O)Nc3ccc4c(c3)OCO4)nnc2-c2ccoc2C)c1	12	18%	-3%	1.4%
CCC(C(=O)NCc1ccco1)N(C(=O)CNS(=O)(=O)c1ccccc1)C1CCCCC1 (stereo unspecified)	8	-11%	-5%	-1.4%
Cc1cccc(N2CCN(C(=O)c3cccc(S(=O)(=O)N4CCc5ccccc5C4)c3)CC2C)c1 (stereo unspecified)	-4	3%	16%	-2.9%
Cc1ccc(S(=O)(=O)CC(=O)c2ccc([N+](=O)[O-])cc2)cc1	-2	-3%	-14%	-0.1%
CCCNC(=O)c1ccccc1NC(=O)c1ccccc1N(C)S(C)(=O)=O	0	-5%	-6%	-1.5%
Cc1ccccc1-c1nn2c(-c3ccccc3)nnc2s1	-9	-2%	-36%	-0.3%
Cc1cc(C)c(C)c(S(=O)(=O)NC2CCN(Cc3ccccc3)CC2)c1C	-2	9%	5%	0.0%
CCCC(=O)C1=C(SCC)CC(C)(C)C(C(=O)OC)C1=O (stereo unspecified)	-3	2%	-5%	1.0%
Cc1ccc(S(=O)(=O)c2cc3c(=O)n4cccc(C)c4nc3n(C3CCCCC3)c2=N)cc1	nt	-17%	-1%	?

Record cards (already shown):
Cc1cccc(N2CCN(C(=O)c3cccc(S(=O)(=O)N4CCc5ccccc5C4)c3)CC2C)c1 (stereo unspecified) across the screens: GLA inh pH 4.5: -4; Rango dissoc inh: 3%; miR-21 FLuc: 16%; Rango-impB inh: -2.9%
CCC1CCCCN1CCCNC(=O)CN1C(=O)c2cccnc2Oc2ccc(Cl)cc21 (stereo unspecified) across the screens: GLA inh pH 4.5: nt; Rango dissoc inh: -7%; miR-21 FLuc: 0%&-7%; Rango-impB inh: -5.5%

(next part)
SMILES	GLA inh pH 4.5	Rango dissoc inh	miR-21 FLuc	Rango-impB inh
CCNC(=O)OCc1cn(-c2ccccc2)nn1	?	10%	-4%	0.1%
Cc1ccc(C(=O)Oc2ccc(/C=N/NC(N)=O)cc2)cc1	3	8%	-1%	-0.6%
Cc1ccc(S(=O)(=O)N2CCC(C(=O)N[C@@H](Cc3ccccc3)C(=O)O)CC2)cc1	-6	20%	-11%	2.0%
Cc1cc(NC(=O)CSc2cc(Cl)ccc2Cl)n(-c2ccccc2)n1	-2	-11%	11%	0.1%
C[C@@H]1COC(=O)[C@@H](Cc2ccc(F)cc2)C/C=C\C[C@@H](CC(=O)NCCO)C(=O)N1	nt	-19%	nt	2.0%
CCN1CN(Cc2ccccc2)CNC1=S	2	-15%	0%	-1.3%
Nc1c(C(=O)CSc2ncccn2)c(=O)[nH]c(=O)n1C1CC1	nt	11%	nt	-1.4%
COc1ccnc(Oc2ccccc2)c1C(=O)N/C=N/OCc1ccc(F)cc1Cl	-14	-1%	0%	-0.5%
Cc1ccc(SCc2[nH]nc3c2C(C(C)C)C(C#N)=C(N)O3)cc1 (stereo unspecified)	1	-1%	-5%	?
Cc1ccc(/C=C2\SC(=S)N(CCC(=O)NNC(=O)c3cccnc3)C2=O)cc1	-10	-6%	-3%	-2.2%
CCCOc1ccc(-c2nc(=S)[nH][nH]2)cc1	-11	7%	-39%	-1.0%
O=C(c1c[nH]c(C(=O)C(Cl)(Cl)Cl)c1)c1ccc(F)cc1Cl	5	1%	-4%	1.3%
O=C(CCC1CCCN(C(=O)CCN2CCCCC2=O)C1)NCc1ccccc1F (stereo unspecified)	7	16%	-16%	0.2%
CCOC(=O)c1c(NC(=O)CN2C(=O)NC(C)(c3ccccc3)C2=O)sc(C)c1C (stereo unspecified)	1	0%	21%	-0.1%
CC(C)CCc1noc(CN2CCC(C(=O)N3CCOCC3)CC2)n1	6	11%	2%	-1.5%
O=C(CN1C(=O)c2ccccc2S1(=O)=O)Nc1cccc(S(=O)(=O)N2CCOCC2)c1	nt	8%	nt	-0.2%
Cc1ccc(-c2n[nH]c(=O)c3ccccc23)cc1S(=O)(=O)N(C)C	nt	-7%	-5%	-0.4%
COc1cc(/C=N/N=C2/NC(=O)C(Cc3ccc(F)cc3)S2)ccc1O (stereo unspecified)	-2	-12%	-45%	-3.2%
O=C(NCCCc1ccccc1)c1cccc(S(=O)(=O)N2CCOCC2)c1	nt	30%	nt	-1.8%
CC1CCN(C(=O)c2nc[nH]c2C(=O)N2CCC(C)CC2)CC1	nt	5%	nt	2.8%
O=C(Nc1ccc(C(=O)O)cc1)/C(=C\c1ccc2c(c1)OCO2)NC(=O)c1ccc(Br)cc1	-8	0%	2%	?
Cc1ccc(S(=O)(=O)c2nc(C)oc2NCc2ccccc2)cc1	-17	nt	-3%	nt
Cc1ccc(S(=O)(=O)c2c(N)n(Cc3ccco3)c3nc4ccccc4nc23)cc1C	2	?	9%	?
COc1ccc(NC(=O)C(C)N2C(=O)C3CC=C(Cl)CC3C2=O)cc1 (stereo unspecified)	nt	-5%	4%	6.3%
CCN1C(=O)[C@H]2[C@@H](c3ccc(-c4cccc(Cl)c4)c(OC)c3)N[C@@](CC(C)C)(C(=O)OC)[C@H]2C1=O	nt	-5%	nt	-2.7%
CCNC(=S)N/N=C/c1cc(C)ccc1C	-9	4%	-7%	-2.7%
COc1ccccc1Cc1nnc(NC(=O)C2CCN(C(=O)c3ccco3)CC2)s1	nt	-6%	3%	3.7%
COc1ccc(/C=C2/N=C3CCCCCN3C2=O)cc1OC	-12	1%	-48%	0.3%
O=C(N/C(=C\c1ccccc1)C(=O)N1CCCCCC1)c1ccccc1	2	4%	0%	1.2%
Cc1nnc(SCC(=O)c2cc(C)n(C3CC3)c2C)s1	1	-1%	-44%	2.4%
O=C(OCC(=O)c1ccc[nH]1)c1ccc(S(=O)(=O)N2CCCCC2)cc1	10	nt	-11%	nt
CN(Cc1cnn(C)c1)Cc1nc(COc2ccccc2)no1	1	1%	-21%	0.9%
CCCCNC(=O)N(CC)c1c(N)n(Cc2ccccc2)c(=O)[nH]c1=O	-21	0%	-1%	-0.9%
O=C(Nc1cnccn1)c1csc2ccccc12	1	4%	-48%	-6.2%
CN(C)CCCNc1nc(-c2ccc(Cl)cc2)nc2ccccc12	nt	1%	?	4.8%
O=C(COc1ccccc1Br)NCc1ccco1	-4	10%	-55%	0.5%

Fetched by compound from the list above:
SMILES	GLA inh pH 4.5	Rango dissoc inh	miR-21 FLuc	Rango-impB inh
CCCCNC(=O)N(CC)c1c(N)n(Cc2ccccc2)c(=O)[nH]c1=O	-21	0%	-1%	-0.9%
Cc1nnc(SCC(=O)c2cc(C)n(C3CC3)c2C)s1	1	-1%	-44%	2.4%

Continuation:
SMILES	GLA inh pH 4.5	Rango dissoc inh	miR-21 FLuc	Rango-impB inh
Cc1ccc(NC(=O)COC(=O)c2oc3ccccc3c2C)cc1S(=O)(=O)N1CCOCC1	nt	6%	nt	-2.8%
CCOC(=O)C1CCN(C(=O)CSc2nnc(-c3ccco3)n2-c2ccccc2)CC1	-3	2%	-3%	-1.3%
COc1ccc(NC(=O)CN(C)C2CCCCC2)c([N+](=O)[O-])c1	2	0%	-8%	-0.8%
CN(C)S(=O)(=O)c1ccc(N2CCCC2)c(C(=O)Nc2nc3ccc(F)cc3s2)c1	3	1%	-29%	-0.8%
Cc1cc(=O)oc2c3c(cc(OCC(=O)NCc4cccnc4)c12)OC(C)(C)CC3	nt	-10%	-16%	0.3%
